# Screening results (PubChem)
# HTT prom inh: Primary qHTS for Identification of Small Molecule Inhibitors of Huntingtin Promoter Activity. HEK293 HTT promoter firefly luciferase reporter (activity 0% = vehicle and -100% = no light), 24 h. Potency, µM (doses to about 57.5 µM), without a hit: at the highest dose activity change, negative = inhibition, most hits filed as inhibitors. hit rate 0.93% among 48,000. AID 1508623, 2021; active = well fitted inhibition curve with a large enough effect; inconclusive = small, poorly fitted or top-dose-only effect; inactive = no such curve, though single readings can be large or run the other way; also: nearly all actives have a fitted effect of over 50% in size
#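 HEK293 cells carrying firefly luciferase reporters were seeded at 2,500 per well in Opti-MEM and cultured for 24 h. They were then treated with compounds at up to 57.5 uM final for 24 h at 37 degrees C before Dual-Glo luminescence readout.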
# PMP22 txn: Cell-based coincidence reporter assay to measure PMP22 gene transcription in S16 Pmp22-F2sN cells - Primary screen; S16 Pmp22-F2sN Schwann cells (luciferase reporters placed in the Pmp22 gene), FLuc/NLuc coincidence luminescence, 24 h; Potency, µM (top dose mostly 57.5 µM), inactives show at the top dose activity change, negative = inhibition, actives largely listed as inhibitors; hit rate 2% among 43,000; active = clear falling dose curves in both reporters; inconclusive = both reporters move, but less clearly or upward; inactive = either reporter flat; the % is the NLuc reporter signal; also: % is scaled to controls: 0 for no effect and ±100 for the full control effect; some results filed as inactive show a strong effect at the top dose
#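 Schwann cells carrying the coincidence reporter were exposed to library compounds for 24 h at 37C, then lysed and read for FLuc and, after quenching, NLuc luminescence on a CCD imager.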
# Active calls of the source: *; ? = inconclusive; · = not tested or not shown; [ ] = another dose, or the depositor's remark. Potency is read from the fitted curve at half-maximal effect.
# Each structure is followed by: HTT prom inh, PMP22 txn
> O=C1CN(C(=O)COc2ccc(Cl)cc2)C(c2ccccc2)c2cc(Br)ccc2N1 (centres undefined)
→ ?, -11.0%
> O=C(NCC(c1ccco1)S(=O)(=O)c1ccc(Cl)cc1)c1ccccc1F (centres undefined)
→ 2.6%, -40.5%
> CCC(=O)NCCc1sc2nc(-c3ccc(OC)cc3)nn2c1C
→ 8.5%, 7.2%
> Cc1cccc(C(=O)Nc2cc(-c3nc4cccnc4s3)ccc2C)c1
→ 1.1%, -6.7%
> Cc1nnc(NC(=O)CSc2nc3c([nH]c4ccccc43)c(=O)n2-c2ccccc2)s1
→ 0.5%, ?
> CCOc1ccc(CNC(=O)C2CCN(c3nnc(-n4cccc4CNc4ccc(C)cc4)s3)CC2)cc1OC
→ ?, ?
> COc1cccc(Cn2nnc(C(=O)NCc3ccc(Cl)cc3Cl)c2N)c1
→ -21.2%, -8.9%
> CCCn1c(=O)c2sccc2n2c(CCCC(=O)N3CCN(c4ccc(OC)cc4)CC3)nnc12
→ -25.3%, -11.7%
> COC(=O)c1cccnc1-n1c(=O)c2cccnc2n(CC(=O)Nc2cccc(C)c2)c1=O
→ -0.4%, -8.1%
> O=C(CSc1nccn1-c1ccc(Cl)cc1)Nc1nc2ccccc2s1
→ ?, ?
> O=C(c1cc2ccc3cccnc3c2[nH]1)N1CCN(c2cccc(Cl)c2)CC1
→ ?, ?
> Cc1c(-c2ccccc2)c(=O)oc2ccc(OC(=O)N3CCOCC3)cc12
→ -37.2%, -2.2%
> CC1CCc2c(sc(NC(=O)COc3ccccc3C(C)(C)C)c2C#N)C1 (centres undefined)
→ -8.2%, -23.8%
> CCOc1ccccc1C1CC(=O)NC(C)=C1C(=O)OC1CCCCCC1 (centres undefined)
→ 31.6µM*, ?
> COc1ccc(N2CCN(C(=O)CCc3c(C)nc4c(-c5ccccc5)c(C)nn4c3C)CC2)cc1
→ -29.7%, ?

# (next part)
# Each structure is followed by: HTT prom inh, PMP22 txn
> Cc1ccc(N(C)C(=O)C2CCN(S(=O)(=O)c3c(C)noc3/C=C/c3c(C)cc(C)cc3C)CC2)cc1
→ -15.2%, ?
> Cc1ccc(-n2ncc3c(NC4CCCCCC4)ncnc32)cc1
→ -29.6%, 11.3%
> COC(=O)c1nnn(CC(=O)NC(=O)Nc2ccccc2F)c1C(=O)OC
→ -11.8%, 3.1%
> CC1=C(c2ccc(C(C)C)cc2)S(=O)(=O)NC1=NCCCN1CCN(c2ccccc2F)CC1
→ ?, -9.9%
> O=C(CSc1nc2ccccc2n1Cc1ccccc1)NCc1ccccc1
→ -25.1%, 49.7%
> CCc1ccc(CNC(=O)c2c(C)oc3ncn(CC(C)C)c(=O)c23)cc1
→ 0.0%, -7.2%
> COc1cccc(CNC(=O)CN2C(=O)COc3ccc(S(=O)(=O)N4CCOCC4)cc32)c1
→ -3.2%, -10.0%
> Cc1ccc(CNC(=O)C2CCC(CNS(=O)(=O)c3ccc(C)cc3)CC2)cc1 (centres undefined)
→ -5.9%, -5.6%
> COc1ccc(Br)cc1CNC(=O)CCc1cn(Cc2ccc(C)cc2)c2ccccc12
→ -28.7%, ?
> Nc1nc(N)c2nc(CNc3ccc(C(=O)NC(CCC(=O)O)C(=O)O)cc3)cnc2n1 (centres undefined)
→ ?, ·
> CC(=O)c1ccc(NC(=O)CSc2cn(CC(=O)N(C(C)C)C(C)C)c3ccccc23)cc1
→ -17.7%, -19.2%
> Cc1nc2c(C(=O)NCCC(C)C)cnn2c(C)c1Cc1c(F)cccc1Cl
→ -10.9%, ?
> O=C(NCc1ccc2c(c1)CCN2C(=O)c1ccc(F)cc1)c1ccco1
→ -17.9%, ?
> Cc1cc(C)c(NC(=O)c2cc(S(=O)(=O)N3CCN(c4ccccc4F)CC3)ccc2F)c(C)c1
→ ?, 0.1%
> COc1ccc2c(Sc3ccccc3)c(C(=O)NCCCN3CCCCC3)[nH]c2c1
→ ?, ?

# Later entries:
# Each structure is followed by: HTT prom inh, PMP22 txn
> CCc1ccccc1Nc1ncnc2c1cnn2-c1ccc(Cl)cc1
→ 0.0%, -12.4%
> COc1cccc(N2CCN(S(=O)(=O)c3ccc4[nH]c5c(c4c3)CCCC5)CC2)c1
→ -0.2%, -16.2%
> OC[C@@H](O)[C@@H](O)[C@H](O)[C@H](O)CO
→ 1.7%, ·
> O=C(Nc1ccccc1C(=O)OCc1cc(=O)n2c3c(sc2n1)CCCC3)c1ccccc1
→ -32.2%, ?
> Cc1nn(C)c2c1c(-c1ccccc1)cc(=O)n2C(C)C(=O)NCc1ccc(F)cc1 (centres undefined)
→ 0.0%, -5.7%
> O=C(CSc1nc2ccsc2c(=O)n1Cc1ccccc1F)NCc1ccccc1Cl
→ -24.7%, -13.2%
> COc1ccc(C2NC(=O)N(C)C3=C2C(=O)N(c2ccc(F)cc2)C3)cc1 (centres undefined)
→ -19.8%, -5.5%
> Cc1ccc(-c2nc(C)c(CCNC(=O)c3cccs3)s2)cc1
→ -17.4%, 7.6%
> O=C(NCc1ccccc1F)C(=O)NCC(c1ccco1)S(=O)(=O)c1ccccc1 (centres undefined)
→ -24.1%, -39.9%
> COC(=O)c1ccccc1NC(=O)c1nc(SCc2ccccc2C)ncc1Cl
→ -13.5%, -19.0%
> CCCCC(CC)CNC(=O)c1ccc2c(=O)n(CCOC)c(=O)[nH]c2c1 (centres undefined)
→ ?, -0.8%
> CCOC(=O)c1cccc(NC(=O)CC(c2cc(OC)c(OC)c(OC)c2)N2Cc3ccccc3C2=O)c1 (centres undefined)
→ -27.6%, -12.0%
> O=C(NCc1ccc(Cl)cc1)c1cc(S(=O)(=O)N2CCCCC2)c[nH]1
→ ?, -5.4%
> Cc1ccc(NC(=O)Cn2nc(-c3ccc(F)cc3)c3cnc4ccc(C)cc4c32)cc1
→ 9.0%, 3.6%
> Cc1ccc(NC(=O)CSc2nnc(-c3cc4occc4n3C)n2-c2ccccc2C)cc1F
→ ?, -8.7%

# Other results.
# Each structure is followed by: HTT prom inh, PMP22 txn
> COc1ccccc1N1CCN(C(=O)c2cc(S(=O)(=O)N3CCC(C)CC3)cn2C)CC1
→ -24.4%, ?
> O=C(CCCc1nc(-c2ccc(Cl)cc2)no1)NCc1ccco1
→ ?, -15.4%
> CCOc1ccc(NC(=O)CCc2c(C)nc3nc(C)nn3c2C)cc1
→ 12.9%, -3.2%
> CCn1nnc2cc(C(=O)Nc3cccc(Cl)c3)ccc21
→ 19.2%, 0.1%
> O=C(c1ccc2c(c1)N(Cc1ccc(Cl)cc1)C(=O)c1ccccc1S2(=O)=O)N1CCCC1
→ ?, ?
> Cn1c2ccccc2c2cnn(CC(=O)NCCCN3CCN(c4ccccc4F)CC3)c(=O)c21
→ -6.0%, -3.0%
> Cc1ccc(C)c(NC(=O)Cn2c(=O)n(Cc3cccs3)c(=O)c3cccnc32)c1
→ -27.6%, ?
> COc1cc(NC(=O)CC2C(=O)OCCN2Cc2ccccc2)cc(OC)c1 (centres undefined)
→ ?, -24.9%
> O=C(NC1CCCCCC1)C1c2ccccc2C(=O)N1Cc1ccccc1Cl (centres undefined)
→ 0.6%, -17.2%
> CC(C)c1ccc(CNC(=O)c2ccc(N3CCCC3)c(NC(=O)NCc3ccc(F)cc3)c2)cc1
→ ?, ?
> COCCCNC(=O)c1cn(CCOC)c(=O)c2c1c1ccccc1n2C
→ -14.8%, -8.0%
> Cc1ccc(S(=O)(=O)NCC2CCC(C(=O)NCCc3ccccc3)CC2)cc1 (centres undefined)
→ -4.4%, -19.3%
> Cc1ccccc1C(=O)Nc1ccc(NC(=O)c2cccs2)cc1
→ -6.8%, -6.9%
> CC(C)C(=O)Nc1cccc(C2CN3CCSC3=N2)c1 (centres undefined)
→ -2.8%, ·
> CCOC(=O)c1c(NC(=O)CSc2cn(CCNC(=O)c3ccc(OC)cc3)c3ccccc23)sc2c1CCC2
→ ?, -2.9%

# Remaining list, next part
smiles	HTT prom inh	PMP22 txn
O=C(Cn1c(=O)nc(-c2ccccc2)c2ccccc21)NCCCc1ccccc1	-12.8%	1.9%
CCOC(=O)CC(NC(=O)Cn1nnc(-c2ccc(C(F)(F)F)cc2)n1)c1ccccc1Cl (centres undefined)	?	-23.3%
O=C1Cc2cc(Cl)ccc2N1	2.3%	·
Cc1cccc(CCn2c(=O)c3ccccc3n(CC(=O)Nc3ccccc3F)c2=O)c1	0.2%	16µM*
CCOc1ccc(N2C(=O)c3n[nH]c(-c4cccs4)c3C2c2cccc(F)c2)cc1 (centres undefined)	-14.3%	?
O=C(NCCc1csc2nc(-c3ccccc3F)nn12)C(=O)Nc1cc(F)ccc1F	11.9%	-1.8%
Cc1ccc(Cn2c(C(=O)O)c(CNCc3ccc(OC(C)C)cc3)c3ccc(C)cc32)cc1	?	?
CC(=O)c1cccc(NC(=O)C2=CC(c3ccc(F)cc3)=NS(=O)(=O)N2C)c1	?	-6.8%
Cc1cc(-c2ccc(C)c(S(=O)(=O)N(Cc3cccs3)C(C)C)c2)on1	?	-0.3%
CCc1c(C)nc(SCC(=O)N2CCN(c3ccccc3OC)CC2)[nH]c1=O	-6.4%	-21.4%
CCCC1=Nc2cc(C(=O)NC(C)c3ccccc3)ccc2Sc2ccc(C)cc21 (centres undefined)	-32.1%	?
CC(C)CC(=O)n1nc(-c2ccco2)nc1NCc1ccc(Cl)cc1	11.6%	?
CN(C)c1ccc(-c2nc(-c3ccncc3)no2)cc1[N+](=O)[O-]	3.9%	?
Cc1ccc(CNc2nnc(C)c3nnn(Cc4ccc(F)cc4)c23)cc1	-17.7%	?
CC(=O)c1ccc(NC(=O)Cn2cc3c(n2)CCCC3)cc1	-14.8%	8.7%
CCOc1ccc(CC(=O)NC2CC(=O)N(c3ccc4c(c3)OCCO4)C2)cc1 (centres undefined)	-16.5%	8.3%
COCc1cc(C)nc2sc(C(=O)Nc3ccc(C(C)=O)cc3)c(N)c12	44.4%[activator]	?
CCCCCCOc1ccc(/C=C/C(=O)Nc2sc3c(c2C(=O)OC)CCC3)cc1OC	?	6.96µM*
O=C(NCc1ccc(F)cc1)c1ccc(CSc2nc3ccncc3n2Cc2ccc(F)cc2)cc1	?	?
CC(=O)c1ccc(NS(=O)(=O)c2cc(-c3cnc(C4CC4)o3)ccc2C)cc1	-27.1%	?
CCc1ccc(C2c3c(oc4ccc(C)cc4c3=O)C(=O)N2c2nc(C)c(C)s2)cc1 (centres undefined)	6.4%	-7.4%
COC(=O)c1ccc(NC(=O)Cn2ccn3nc(-c4ccc(OC)cc4)cc3c2=O)cc1	34.0%[activator]	7.5%
COCCCNC(=O)Cn1c(=O)n(-c2ccccc2)c(=O)c2c1c1cc(OC)ccc1n2C	-14.6%	-7.8%
CC(=O)c1cccc(-n2c(=O)c3c4c(sc3n(CC(=O)c3ccc(Cl)cc3)c2=O)CN(C(C)=O)CC4)c1	-4.1%	0.4%
COC(=O)c1cccc(Nc2c(-c3ccc(SC)cc3)nc3nc[nH]n23)c1	28.0%	-8.8%

# More entries follow.
smiles	HTT prom inh	PMP22 txn
CCc1nn2c(=O)cc(COC(=O)c3ccccc3NC(=O)c3cccs3)nc2s1	?	16.1%
COCCNC(=O)c1cc2c(Cl)nc3ccc(C)cc3c2s1	2.4%	-7.5%
COc1ccc(CNC(=O)C2CCCN(S(=O)(=O)c3ccc4c(c3)CCCN4C(C)=O)C2)cc1 (centres undefined)	?	-17.3%
Cc1ccc(CNS(=O)(=O)c2cc(Br)cc3c2N(C(=O)C2CC2)CC3)cc1	-9.3%	?
COc1ccc(-c2nc(CCNC(=O)c3ccc(Br)o3)cs2)cc1	?	-85.5%
CCOc1ccc(Nc2ncnc3onc(-c4ccc(Cl)cc4)c23)cc1	?	-4.7%
CCCn1ccc2c(OCC(=O)NCc3ccccc3Cl)cccc2c1=O	-18.4%	-9.4%
CCCc1nc2nc(C)c(NS(=O)(=O)c3ccc(C)c(C)c3)c(=O)n2[nH]1	7.7%	6.1%
Cc1c(CNC2CCCCCC2)c(C(=O)O)c(C)n1Cc1ccc(F)cc1	-10.1%	-9.0%
O=C(Nc1ccccc1-c1cn2c(CN3CCNCC3)csc2n1)c1cnc2ccccc2n1	-10.5%	·
CCOc1ccccc1CNCc1cccn1-c1nnc(N2CCN(c3ccccc3)CC2)s1	25.1µM*	?
Cc1ccc(CNC(=O)CCc2c(C)nc3c(c(C)nn3-c3ccccc3)c2C)cc1	1.2%	-25.4%
CCC(=O)N1CCc2cc(S(=O)(=O)NC(CC(C)C)C(=O)Nc3ccc(CC)cc3)ccc21 (centres undefined)	-17.5%	-1.8%
COc1cccc(-c2nc(CS(=O)(=O)CC(=O)NCCCN3CCN(C)CC3)c(C)o2)c1	19.3%	2.6%
